HSV replic up: increases HSV replication in cells; actives 0.005% (n = 220,000); HSV replication augmentation in cells, fold increase; maximum fold increase;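 active means peak rise of 1.5-fold or more in the series; inconclusive means self-fluorescent or not available for retest; tested in PC3 cells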;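 further: first round at 10 µM; read as green reporter fluorescence; hits show the peak of a series up to 25 µM; 1 = signal of infected wells without compound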
INS promoter inh: TRM-6 insulin promoter activity inhibition; TRM-6 cells (human fetal islet line), insulin promoter-eGFP reporter, imaging; reporter expression induced with tamoxifen; inhibition, % at 2 µM; actives 0.9% (n = 130,000); AID 1273;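 active means inhibition above the mean plus 3 SD, with well images judged a real hit on visual review, cut at about 60% in these data, passing the limit was not always enough; inconclusive means inhibition over the cutoff but images rejected on review; inactive means inhibition not above the cutoff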
GALR2 agonist: agonists of human galanin receptor 2 (GALR2) | actives 0.48% (n = 140,000) | activation, %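 (tested at 5 µM)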 | O43603 | GALR2-expressing cells, agonist activation read-out;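 active means above mean plus 3 SD of all compounds, about 5% in these data, not always enough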;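 further: 0% = vehicle buffer wells and 100% = reference agonist at full effect; tested in CHO reporter cells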
PKD1 inh: blocks activity of human protein kinase D1 | Q15139 | PKD1 kinase fluorescence polarization assay | inhibition, %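 (about 10 µM by stock and volumes)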 | actives 0.056% (n = 200,000) | AID 797;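 active means inhibition of 50% or more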;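 further: controls were vehicle for no effect and a reference inhibitor for full effect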
Target sequence (Q15139 whole entry, looked up): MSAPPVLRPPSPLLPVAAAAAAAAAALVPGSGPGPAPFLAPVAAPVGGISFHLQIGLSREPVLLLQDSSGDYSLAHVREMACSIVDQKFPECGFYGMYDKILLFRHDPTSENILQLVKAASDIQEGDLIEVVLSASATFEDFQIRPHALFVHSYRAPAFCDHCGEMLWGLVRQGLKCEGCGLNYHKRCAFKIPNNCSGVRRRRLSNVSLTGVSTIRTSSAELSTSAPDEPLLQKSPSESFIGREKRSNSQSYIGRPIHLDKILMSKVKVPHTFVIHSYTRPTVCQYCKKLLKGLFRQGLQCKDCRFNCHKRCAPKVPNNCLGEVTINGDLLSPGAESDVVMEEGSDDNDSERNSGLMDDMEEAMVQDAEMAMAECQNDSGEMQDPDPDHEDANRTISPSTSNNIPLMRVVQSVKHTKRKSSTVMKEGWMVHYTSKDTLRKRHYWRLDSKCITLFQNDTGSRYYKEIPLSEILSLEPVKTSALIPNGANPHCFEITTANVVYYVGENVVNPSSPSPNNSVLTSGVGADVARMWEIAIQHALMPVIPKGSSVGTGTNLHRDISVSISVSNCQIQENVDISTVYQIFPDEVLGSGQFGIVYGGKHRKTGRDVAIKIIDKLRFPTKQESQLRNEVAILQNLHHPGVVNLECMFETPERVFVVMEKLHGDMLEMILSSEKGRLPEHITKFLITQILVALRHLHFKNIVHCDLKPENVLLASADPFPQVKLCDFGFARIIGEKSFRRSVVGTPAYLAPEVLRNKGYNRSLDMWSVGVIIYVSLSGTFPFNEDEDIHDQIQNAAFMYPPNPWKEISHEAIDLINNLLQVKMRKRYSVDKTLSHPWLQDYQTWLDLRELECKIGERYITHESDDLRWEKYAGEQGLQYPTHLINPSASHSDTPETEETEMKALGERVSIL
RGS16-Gao HTS: modulates binding between human RGS16 and Galphao. O15492+P09471. bead-based flow cytometry RGS16-Galphao binding, fluorescence; actives lie on both sides. binding response (% of control), % at 10 µM. actives 0.38% (n = 220,000);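 active means below 25% or above 175%, edge rows of some plates excepted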;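 further: Galphao activated by GDP with aluminum fluoride before binding; 100% = wells without compound and 0% = beads without RGS; some results beyond the cut were filed as inactive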
INS promoter inh cell count: second read-out of INS promoter inh, no call of its own (marks repeat the call); normalized cell count, %; measured here: cell count, toxicity; reference of the scale not given here;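 cells exposed to compound for 48 h; stained nuclei by imaging scaled within each plate; lower means fewer cells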
HSV replic up primary fold: further read-out of HSV replic up, marked with its call; fold increase; compound at 10 µM; measured here: primary screen fold increase 10 uM; tested in PC3 cells;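 GFP signal in the first replicate; 1 = infected wells without compound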
The depositor's hits bear a star; i = inactive; ? = inconclusive; · = no result given.

SMILES	HSV replic up	HSV replic up primary fold	INS promoter inh	INS promoter inh cell count	GALR2 agonist	PKD1 inh	RGS16-Gao HTS
O=C(Nc1ccccc1C(=O)NC(Cc1ccc(O)cc1)C(=O)O)c1ccccc1 (configuration not stated)	i	0.92	30	76	·	2	105
COc1ccc(-c2nc3ccccc3c(C(=O)Nc3ccc(S(=O)(=O)Nc4cc(C)on4)cc3)c2C)cc1	i	0.81	37	91	-2.9	-5	95
COc1ccc(Br)cc1C1Nc2ccccc2C(=O)N1NC(=O)c1ccncc1 (configuration not stated)	i	0.81	·	·	-2.0	6	93
O=C1CCCc2ccccc2N1Cc1cccc(F)c1	i	0.93	27	128	·	-1	100
Cc1n(-c2ccccc2)c2ccc(Cl)cc2[n+]1CCO	i	1.1	·	·	·	-12	101
CCO[C@@H]1OC(C(=O)N2CCN(Cc3ccc4c(c3)OCO4)CC2)=C[C@H](c2cn(C(C)=O)c3ccccc23)[C@H]1CCCO	i	0.77	·	·	·	5	123
c1ccc2c(NCC3CCCO3)nc(-c3ccncc3)nc2c1 (configuration not stated)	i	0.81	·	·	-0.7	-1	104
Cc1noc(C)c1CSc1nc2ccccc2nc1NS(=O)(=O)c1ccc(Cl)cc1	i	0.92	·	·	-2.0	3	102
NC(=O)N1CCCC1C(=O)Nc1ccc(Cl)c(Cl)c1 (configuration not stated)	i	0.65	17	116	0.0	5	101
CCOC(=O)c1c(-c2ccc(-c3ccccc3)cc2)csc1NC(=O)c1cccc(N2C(=O)CCC2=O)c1	i	0.88	·	·	-0.9	5	109
CCSc1nnc(NC(=O)C(C(F)(F)F)C(F)(F)F)s1	i	0.77	·	·	-1.2	-7	91
Cc1cccc(NC(=O)CSc2nc3ccccc3o2)c1	i	0.94	4	141	-2.7	-7	90
Nc1n[nH]c(N)c1N=Nc1ccccc1	i	0.95	·	·	·	-5	108
COc1ccccc1NC(=O)c1cc(Sc2nncn2C)nc2ccccc12	i	0.97	·	·	-0.3	6	103
O=C(CSc1nnc(-c2ccccc2O)o1)N1CCc2ccccc2C1	i	0.88	14	68	-1.5	-4	98
Cc1[nH]c2ccccc2c1C(=O)C(=O)NCC1CCCO1 (configuration not stated)	i	0.96	·	·	·	-2	89
CCOC(=O)c1ccc(-c2ccc(/C=N/NC(=O)Cc3nnc(N)s3)o2)cc1	i	1.2	·	·	·	·	96
Cc1cc(C(=O)OCC(=O)NCc2ccco2)c(C)n1-c1ccc(F)cc1	i	0.78	-45	37	-1.5	-5	98
COc1cc(C2=NOC(C(=O)NC3CCCCC3)C2)cc(OC)c1OC (configuration not stated)	i	1.2	·	·	0.2	-14	98
CCN1CC(CN(C)Cc2cn(-c3cccc(C)c3)nc2-c2cccc(F)c2)CC1=O (configuration not stated)	i	1.1	·	·	·	2	68
COCCC(=O)Nc1ccc2c(c1)CN(C(=O)CCSC)CC2	i	1.1	·	·	·	6	99
Cc1ccc(-c2nnn(CC(=O)N3c4ccccc4CCc4ccccc43)n2)cc1	i	0.99	13	131	-2.1	-9	97
CCOC(=O)C1C(=O)C=C(Nc2ccccc2F)CC1c1ccccc1 (configuration not stated)	i	0.94	0	118	-0.6	9	97
Cc1cccc(-n2c(C)cc(/C=N/NC(=O)c3ccc(CN4CCOCC4)cc3)c2C)c1	i	0.94	·	·	-1.7	-12	97
CCN(C(=O)COC(=O)CNC(=O)c1ccc(F)cc1)C1CCS(=O)(=O)C1 (configuration not stated)	i	0.91	·	·	·	-5	103

(more compounds)
SMILES	HSV replic up	HSV replic up primary fold	INS promoter inh	INS promoter inh cell count	GALR2 agonist	PKD1 inh	RGS16-Gao HTS
COc1cccc(CN2CCNC(=O)C2CC(=O)NCCn2ccc3ccccc32)c1OC (configuration not stated)	i	0.92	·	·	·	-6	96
Cc1cccc(C)c1OCc1nc2ccccc2c(=O)n1/N=C/c1c[nH]c2ccccc12	i	0.79	·	·	0.8	-17	111
CNc1ccccc1-n1ccc(-c2ccccc2)n1	i	0.93	27	71	-1.4	-11	83
O=C(C1CCN(Cc2ccc(Cl)cc2)CC1)N1CCN(C(c2ccccc2)c2ccccc2)CC1	i	0.87	·	·	-0.5	0	99
c1ccc2c(N3CCCCC3)nc(N3CCCCC3)nc2c1	·	·	50	76	-3.9	-5	103
Cc1nn(Cc2ccccc2)c(Cl)c1C(=O)OCc1nnc(-c2ccc(Cl)cc2)o1	i	0.92	·	·	-1.5	8	103
Nc1nc(SCC(=O)Nc2ccc([N+](=O)[O-])cc2)n[nH]1	i	0.8	·	·	·	5	105
NC(=O)COc1ccccc1	i	1	·	·	·	·	100
O=C(CSc1nc2c(cnn2-c2ccc(F)cc2)c(=O)[nH]1)N1CCCCCC1	i	0.93	·	·	-0.3	10	65
O=C(OC(C(=O)Nc1cc(Cl)cc(Cl)c1)c1ccccc1)C1=COCCO1 (configuration not stated)	i	0.94	40	47	-2.5	0	101
O=C(NCCN1CCOCC1)c1ccc2c(c1)N(Cc1ccc(F)cc1)C(=O)CS2	i	0.93	-40	104	-0.6	2	110
Nc1nnc(SCn2nnc3ccccc3c2=O)s1	i	0.98	-25	198	·	-4	98
Cc1nn(-c2ccccc2)c2c1C1(C(=O)N(C)c3ccccc31)C(C#N)=C(N)O2 (configuration not stated)	i	0.94	18	64	0.9	5	99
Clc1ccc(-c2cn3cc(Br)ccc3n2)cc1Cl	i	1.1	-6	108	0.7	-1	106
COC(=O)CCC(=O)OC1(C)C(=O)C2=CN(CCN3CCOCC3)C(c3ccc(OC)cc3)=CC2=C(Br)C1=O (configuration not stated)	i	0.84	·	·	·	·	100
CCCCC(=O)NC(=S)Nc1cccc(Cl)c1N1CCCCC1	i	0.94	·	·	-1.4	-16	102
CN(C)c1nc(OCCNC(=O)COc2ccc(Cl)cc2Cl)nc(N2CCOCC2)n1	i	0.98	-211	110	-2.1	-4	23
Cc1cccc(CCNC(=O)c2nnc(Cc3ccc(Cl)cc3)o2)c1	·	·	-55	132	-0.8	10	92
CC(C)[C@H](NC(=O)c1ccccc1)C(=O)OCC(=O)N1CC(=O)Nc2ccccc21	i	0.95	6	95	-1.5	-8	87
CCOC(=O)c1ccccc1NC(=S)N1CCCCC1	i	0.94	-72	118	0.1	-5	100
CCN(CC)C(=O)C12CC3CC(CC(Br)(C3)C1)C2	i	0.95	3	102	·	2	103
COc1cc(C(c2nnnn2C(C)(C)C)N2CCN(c3nc4ccccc4s3)CC2)ccc1O (configuration not stated)	i	0.8	-7	85	-3.8	1	86
CN1CCN(/N=C/c2ccc(Cl)c(Cl)c2)CC1	i	0.84	·	·	-0.8	-10	96
CC(C)(C)C(=O)NC(=S)Nc1cc(C(=O)O)ccc1Cl	i	0.98	9	122	0.2	-10	90
CC1(C)CC(NC(=S)NCc2ccco2)CC(C)(C)N1	i	0.98	·	·	·	-1	102

Further results
SMILES	HSV replic up	HSV replic up primary fold	INS promoter inh	INS promoter inh cell count	GALR2 agonist	PKD1 inh	RGS16-Gao HTS
Cc1ccc2c(c1)cc(C)c1nnc(SCC(=O)NCc3ccco3)n12	i	1.2	-58	131	0.7	4	90
Cc1cc(C)n(-c2nncn2/N=C/c2ccccc2F)n1	i	1.1	-44	117	-0.6	-19	104
COc1cccc2sc(Nc3nnc(-c4cccs4)o3)nc12	i	0.87	·	·	-5.2	-5	83
CC(C)=CCC/C(C)=C/CN(CC(C)O)CC(C)O (configuration not stated)	i	1.1	-23	154	-1.0	-7	105
CN(C)S(=O)(=O)N1CCN(C(=O)c2ccccc2Cl)CC1	i	1	43	87	-2.8	-4	101
C=CCc1cccc(/C=N/c2nc3ccccc3n2CC)c1O	i	0.89	·	·	-2.8	0	111
COc1ccc(-c2nn(-c3ccccc3)cc2C#N)cc1	i	0.89	14	113	-0.8	-7	93
CN(C)Cc1nc2c([nH]1)c(=O)n(C)c(=O)n2C	i	0.95	·	·	-3.8	-2	108
CCCCC(=O)N/N=C/c1cc([N+](=O)[O-])ccc1N1CCOCC1	i	0.96	-38	58	-0.6	-15	103
CCNC(=S)Nc1cccc(Cl)c1C	i	1.1	-233	107	-3.4	8	99
Cc1cc(C(=O)Nn2c(-c3ccc(Br)cc3)nc3ccccc3c2=O)ccc1[N+](=O)[O-]	i	0.9	-49	149	0.1	-1	97
Cc1ccnc(NC(=O)CCCc2ccccc2)c1	·	·	50	90	-0.5	6	80
Cc1ccc(CNC(=O)c2cnccn2)cc1	i	0.97	-33	107	0.5	-12	102
COc1ccc2[nH]c(=O)c(CN(Cc3cccs3)C(=S)NCC3CCCO3)cc2c1 (configuration not stated)	i	0.78	·	·	·	·	106
CCOC(=O)c1cc2ccccc2nc1C	i	0.96	·	·	0.1	-9	98
CCC(C)NC(=O)C1CCCCN1S(=O)(=O)c1ccc(F)cc1 (configuration not stated)	i	1.3	-11	130	0.0	-3	93
CCCC(c1nnnn1Cc1ccccc1)N1CCC(C(N)=O)CC1 (configuration not stated)	i	0.87	·	·	-0.8	-11	89
CCC(=O)Nc1c(C)nn(-c2ccc(C)c(C)c2)c1C	i	1	31	76	-0.5	-3	101
COC(=O)c1ccccc1NC(=O)NCCc1ccc(OC)c(OC)c1	i	0.66	·	·	·	0	103
Cc1ccc(-c2cc(C(=O)NCc3ccco3)no2)cc1	i	0.89	-93	91	-0.4	-1	104
CN1/C(=C\C=C(/C#N)C(=O)Nc2ccc(Cl)cc2)C(C)(C)c2ccccc21	?	·	-44	100	0.0	13	140
COc1ccc(-c2csc(C)n2)cc1OC	i	0.95	-54	89	-0.8	1	105
Cc1ccc(S(=O)(=O)NCc2cccnc2)s1	i	0.99	-24	91	-0.6	-2	70
CN(C)c1ccc(C2C3C(=O)NC(=O)C3ON2c2ccc(Cl)cc2)cc1 (configuration not stated)	i	0.96	·	·	-1.7	-5	103
CCCc1nc(-c2cc3ccccc3[nH]c2=O)no1	i	0.89	·	·	·	·	108

Additional records.
SMILES	HSV replic up	HSV replic up primary fold	INS promoter inh	INS promoter inh cell count	GALR2 agonist	PKD1 inh	RGS16-Gao HTS
COc1ccc(Cc2nnc(NC(=O)CSc3ccccc3)s2)cc1OC	i	1.1	-17	78	-2.2	3	103
COCCNC(=O)c1ccc(CS(=O)(=O)c2ccc(C)cc2)o1	i	0.94	·	·	-0.1	-8	107
O=S(=O)(O)c1nc2ccccc2n1Cc1cccc2ccccc12	i	0.86	·	·	·	·	103
C#CCOCCOCCOCCNc1nc(N2CCN(C(=O)C(Cc3ccc(O)cc3)n3cc(C(N)CC(C)C)nn3)CC2)nc(N2CCN(C(=O)C(Cc3cc4ccccc4[nH]3)n3cc(C(N)Cc4ccc(O)cc4)nn3)CC2)n1 (configuration not stated)	i	0.83	·	·	·	7	92
CC12CCC(C(=O)N3CCCCC3)([C@H](Br)C1=O)C2(C)C (some centres not stated)	i	0.96	·	·	·	·	107
CN(CC(=O)N1CCN(c2ccc(F)cc2)CC1)S(=O)(=O)c1ccc2c(c1)c(=O)n(C)c(=O)n2C	i	0.97	-86	80	·	-2	97
N#Cc1c(NC(=O)C2CC(c3ccccc3O)=NO2)sc2c1CCC2 (configuration not stated)	i	1.1	0	110	-1.4	-4	93
Cc1ccc(-n2nc(C)c3c(C)c(CCC(=O)NC(C)c4ccccc4)c(C)nc32)cc1 (configuration not stated)	i	1	·	·	-0.5	-9	100
Cc1c(/C(O)=C2\C(=O)C(=O)N(CCN(C)C)C2c2ccco2)cnn1-c1ccccc1 (configuration not stated)	i	0.83	19	126	0.2	11	235

Bioassay records (PubChem BioAssay)
